# Source: PubChem BioAssay (several laboratories)
# Sa RN4220 lethal = kills Staphylococcus aureus RN4220; S. aureus RN4220 growth, OD600, 16 h; inhibition, % (no concentration beside the values); 0.33% of 330,000 active; AID 1259311;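 active = z-score of -3 or lower and OD600 up to 0.18 on both plates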;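 note: plate controls were untreated cells for no effect and reference antibiotic for full effect; stock transfer was 100 nL into about 80 µL; one replicate is shown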
# BJeLR viability = kills HRASV12-expressing BJeLR cells; BJeLR (HRASV12) viability, CellTiter-Glo ATP luminescence, 48 h; reference of the scale not given here; inhibition, % (concentration not given with the values); 0.17% of 300,000 active; AID 1554;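 active = replicate mean above 50%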;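 note: 50 nL library stock added to about 25 µL; numbers are from one replicate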
# PrP UTR inh = inhibition of PrP 5' UTR reporter expression; cell-based PrP 5' UTR mRNA reporter, plate reader; inhibition, % (no concentration beside the values); 0.35% of 340,000 active; AID 488862;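 active = every replicate at 50% or more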;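 note: 0 = median of the neutral control wells; tested in H4 reporter cells; numbers are from one replicate; inactives centre near -14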
# ugtP null kill = growth inhibition of S. aureus ugtP deletion strain; S. aureus RN4220 ugtP deletion, OD600 growth, 16 h; some inactives read as strong as hits; growth inhibition, % (no concentration beside the values); 0.54% of 330,000 active;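 active = z-score under -3 and OD600 up to 0.15 on both plates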;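 note: plate controls were untreated wells for no effect and antibiotic for full effect; wells of about 80 µL received 100 nL stock; the first replicate is given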
# Autofluor counter = counter-screen for toxin protease inhibitors: compound fluorescence. compound autofluorescence counterscreen, microsphere flow cytometry; active compounds read high. fluorescence intensity (no concentration beside the values). 3.1% of 360,000 active. AID 624483;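 active = at least 3 SD above the mean of all compounds, about 16000 in these data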;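 note: 100 nL of 1 mM stock went into each well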
# Mtb hypoxia rep = inhibitors of hypoxia-regulated fluorescent reporter in Mycobacterium tuberculosis; M. tuberculosis hypoxia-regulated fluorescent reporter, fluorescence; fluorescence inhibition, % (concentration not given with the values); 0.1% of 300,000 active;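 active = 35 to 45% if threefold the growth effect, above 45% if 1.5-fold the growth effect; inactive = the rest, general growth blockers included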;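 note: wells of about 50 µL received 100 nL stock; 0% = vehicle wells and 100% = reference inhibitor wells; whole bacteria with a GFP reporter of the hypoxia response; strong numbers were not always called active; many hits fall short of the cut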
# Mtb hypoxia rep growth = further read-out of Mtb hypoxia rep, marked with its call; growth inhibition, %; measured here: M. tuberculosis growth (absorbance);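 0% = vehicle and 100% = reference antibiotic; read after six days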
# The depositor's hits bear a star; nt = not tested or not shown.
SMILES,Sa RN4220 lethal,BJeLR viability,PrP UTR inh,ugtP null kill,Autofluor counter,Mtb hypoxia rep,Mtb hypoxia rep growth
CC12CN3CC(C)(CN(C1)C31CCOCC1)C2=O,-14,-4,3,-5,3225,5,3
O=C(Nc1nnc(S(=O)(=O)N2CCCCC2)s1)c1ccccc1Br,-16,10,-1,-7,5640,6,5
COc1ccc(/C=C2\CCCC(C(=O)C(F)(F)F)=C2O)cc1OC,5.0,3,nt,0,nt,12,1
Cc1ccccc1-n1c(C)cc(/C=C2/C(=O)NC(=O)N(Cc3ccco3)C2=O)c1C,-1.9,-1,0,5,2592,-1,4
COc1cccc(OCC(O)CNC2CCCC2)c1 (stereo not given),2.4,-6,-10,5,nt,-1,0
CNc1nc(C)c(C(C)(C)C)s1,1.8,-3,-29,1,4516,13,8
O=C(c1ccc(-n2cccc2)cc1)N1CCN(Cc2ccccc2)CC1,0.4,nt,-20,8,6926,14,-2
CCOn1c(=O)c(-c2cc(OC)ccc2OC)[n+]([O-])c2ccccc21,5.3,-2,-29,6,3251,-9,-5
CCOC(=O)N1CCC(NC(=O)CCc2cn(C)c3ccccc23)CC1,1.0,0,1,2,22914*,3,-1
CC1(C)C(=O)C2(CCCC2)C(=O)OC1c1ccco1 (stereo not given),-0.5,-8,1,3,3512,nt,nt
CCCn1cnc2c(c1=O)c1nc3ccccc3nc1n2Cc1ccccc1OC,5.6,4,nt,0,nt,1,-4
CC(C)NC(=S)NCc1cccnc1,4.2,3,-4,5,2456,11,4
CCCCNC(=O)CSc1nnc(Cc2ccccc2)n1CC,2.8,-1,-22,4,4561,9,6
O=C(CN1CCN(c2ccc(O)cc2)CC1)N1CCc2ccccc21,-0.2,-3,-16,-2,5542,10,2
COc1cccc(C2CC(c3ccccc3OC)n3ncnc3N2)c1 (stereo not given),3.4,-6,-12,11,5909,nt,nt
CN(C(=O)COC(=O)c1ccc[nH]c1=O)C1CCCCC1,2.3,-15,-19,7,6343,13,12
COc1cc2c(C(=O)N(C)c3ccc(F)cc3)cn(C)c(=O)c2cc1OC,-5.2,-2,-21,15,3585,5,5
CCOC(=O)c1cc2c(ccn2C)n1CC(=O)N1CCN(c2ccccc2OC)CC1,1.3,11,nt,3,nt,5,11
COc1ccc(C(c2sc3nc(C)nn3c2O)N2CCCCC2)cc1 (stereo not given),-8.8,2,-29,-7,6036,5,16
Cc1cc(=O)n(CC(=O)O)c2ccccc12,1.3,5,-17,9,4015,12,-1
CNC(=O)c1c(Cl)cnn1-c1ccc(C)cc1,5.1,-2,-58,2,4566,7,-11
CCn1c(P(C)(=O)O)nc2cc(NC(=O)c3ccccc3F)ccc21,0.3,-7,10,0,2447,13,18
NC(=S)N/N=C/c1ccccc1O,nt,-3,-8,nt,6083,nt,nt
CCN(CC)C(=O)c1sc(NC(=O)c2ccoc2C)c(C(=O)OC)c1C,14,2,8,1,2348,10,8
CC1(C)Cc2noc(N)c2C(C)(C)N1OC(=O)c1ccccc1,1.8,10,-2,3,4532,7,16
CC(C)NCC(O)COCCOc1ccc(Cl)cc1 (stereo not given),1.0,4,-31,3,5990,6,-1
Cc1ccc(OCCNC(=O)CCC(=O)N2CCOCC2)cc1,-0.1,-5,-14,5,5389,2,7
Cc1nn(-c2cccc(Cl)c2)c2nc(-c3ccncc3)cc(C(=O)N3CCOCC3)c12,-8.9,-4,14,3,4553,-6,6
COc1ccc(-n2nc(C(=O)NCC(=O)Nc3cccc(NC(C)=O)c3)c3ccccc3c2=O)cc1,-0.7,4,-8,-2,3325,3,18
CC(=NNS(=O)(=O)c1ccc(C)c([N+](=O)[O-])c1)c1cc2ccccc2o1,26,nt,nt,6,nt,11,-1
Cc1ccc(S(=O)(=O)Cn2nnnc2C(c2ccc(F)cc2)N2CCC(C(N)=O)CC2)cc1 (stereo not given),2.2,5,-16,6,4464,nt,nt
COc1ccc(NS(=O)(=O)c2cc(NC(=O)c3ccc(S(=O)(=O)N(C)C)cc3)ccc2N2CCOCC2)cc1,6.7,nt,-15,-2,3783,8,15
N#Cc1ccsc1NC(=O)COC(=O)c1cc2ccccc2cc1O,11,-6,-6,5,2578,6,-3
O=C(N/N=C/c1cccc2ccccc12)c1cccs1,nt,3,-59,nt,4435,nt,nt
COc1ccc(-c2nnc(SCc3ccccc3)n2N)cc1,0.4,8,-41,1,16061,5,9
O=C(Nc1cccc(F)c1)C1CCN(S(=O)(=O)c2cnc[nH]2)CC1,2.1,4,-12,10,5739,5,0
CCCCn1nnnc1SCC(=O)N1CCOCC1,6.1,-1,-19,-7,3699,8,9
CCCc1cc(=O)[nH]c(Nc2ccc(N3CCCCC3)cc2)n1,-4.3,3,-11,0,20834*,-3,5
COCCCNc1nc2nonc2nc1N(C)CC1CCCN1C (stereo not given),4.1,2,-14,3,4710,3,11
COc1ccc(CCNC(=O)c2cc(-c3ccccc3)on2)cc1OC,9.8,0,-12,0,11048,21,0
COC(=O)C1=C(C)N(CCCC(=O)O)C(=O)NC1c1cccc(Cl)c1Cl (stereo not given),1.5,12,-22,-1,3895,2,6
COc1ccc(-c2cc(C(=O)N3CCN(c4ccccc4)CC3)c3ccccc3n2)cc1,-5.5,17,-20,7,2649,-4,2
Fc1ccc(-c2ccc(/C=N\n3cnnc3)o2)cc1Cl,nt,-6,-7,nt,2526,nt,nt
Cc1oc(-c2ccc(Cl)cc2)nc1CS(=O)CC(=O)NCCCN1CCCC(C)C1 (stereo not given),-1.1,3,-22,-2,4301,-9,16
O=C(CN1CCCSc2ccccc21)N1CCN(S(=O)(=O)c2ccccc2)CC1,5.3,nt,-10,-6,5397,-2,2
COc1cccc(C2C(C#N)=C(N)Oc3c2oc(CO)cc3=O)c1 (stereo not given),3.4,-1,-7,6,3009,5,-2
O=C(NCCc1ccccc1F)c1cccc2cccnc12,2.4,1,-35,-5,7059,-8,5
Cn1c(SCC(=O)Nc2ccccc2F)nc2c(c1=O)SCC2,1.2,1,-21,4,5536,2,10
O=C(Nc1ccc(F)cc1)C1CCCN(S(=O)(=O)c2ccc3[nH]c(=O)ccc3c2)C1 (stereo not given),-0.1,-4,-55,4,5444,nt,nt
Cc1c(CC(=O)N2CCN(C(=O)C3COc4ccccc4O3)CC2)c(=O)oc2cc(O)cc(O)c12 (stereo not given),-1.2,7,-23,-1,nt,-12,-9
O=C(CC1c2ccccc2Oc2ccccc21)Nc1ccccc1F,8.7,-6,-7,-2,8710,4,-4
O=C(c1ccc2n[nH]nc2c1)N1CCN(c2ccc(C(F)(F)F)cn2)CC1,5.4,nt,-7,-5,3874,-3,-12
O=C(CCCn1c(=S)[nH]c2cc3c(cc2c1=O)OCO3)N1CCN(C2CCCCC2)CC1,2.4,9,-17,6,10167,1,-2
OCC1C2c3ccccc3C(c3ccccc32)C1CO (stereo not given),-2.7,-1,-31,3,5588,4,-2
COc1c(C=NNC(=O)c2ccccc2O)c(CCN(C)C(C)=O)cc2c1OCO2,5.2,nt,nt,15,nt,4,-2
COc1ccccc1NC(=O)N1CCCC1C(=O)Nc1nnc(C(C)C)s1 (stereo not given),4.0,-6,-18,1,4269,19,5
Cc1cccc(-c2nc3ccc(C(=O)NCCN4CCN(C)CC4)cc3nc2-c2cccc(C)c2)c1,-1.8,0,-10,6,5792,10,19
CCCN1CCC(NC(=O)Cc2ccccc2C)CC1,0.0,-2,-12,5,4041,3,0
O=C(CCCN1C(=O)CCC1=O)Nc1cccc(C(F)(F)F)c1,1.5,-2,-6,7,4085,nt,nt
COc1cccc(/C=N/NC(=O)CNC(=O)c2cccnc2)c1O,nt,-13,-16,nt,3576,nt,nt
# Continued:
SMILES,Sa RN4220 lethal,BJeLR viability,PrP UTR inh,ugtP null kill,Autofluor counter,Mtb hypoxia rep,Mtb hypoxia rep growth
COc1ccc(C)cc1NC(=O)CN1CCN(S(=O)(=O)c2ccc(F)cc2)CC1,-3.3,0,-13,5,2518,nt,nt
Cc1ccc(N/N=C2\CS(=O)(=O)N(C)c3ccsc32)cc1,nt,10,-44,nt,4249,nt,nt
C=CCc1cc(S(=O)(=O)c2ccc(O)c(CC=C)c2)ccc1O,2.1,-5,-14,11,3470,2,2
CC(NC(=O)CN1C(=O)NC2(CCc3ccccc32)C1=O)c1ccc2c(c1)OCCO2 (stereo not given),2.8,nt,-26,3,8101,12,-8
O=C(Cc1ccccc1)Nc1ccccc1N1CCCC1,4.0,-7,-12,5,2587,12,1
COC(=O)c1sc(S(=O)(=O)Nc2ccc3cn[nH]c3c2)c(C(=O)OC)c1C,5.0,12,5,-3,4626,nt,nt
CCCCNC(=O)c1ccc(NC(=O)CC2SC(N3CCCC3)=NC2=O)cc1 (stereo not given),5.2,nt,-29,12,6313,9,4
COc1cc(OC)cc(C(=O)NC(=S)NCCc2ccccc2)c1,0.8,-6,-1,11,22614*,2,12
COc1cc(/C=C2\S/C(=N/S(=O)(=O)c3ccc(C)cc3)NC2=O)c([N+](=O)[O-])cc1OC,2.3,-7,-14,55,nt,13,15
CC(=O)c1sc(N/N=C\c2ccccc2O)nc1C,nt,0,-49,nt,2161,nt,nt
N#CC1=C(N)C(C#N)(C#N)C(c2ccncc2)C2CN(C(=O)OCc3ccccc3)CC=C12 (stereo not given),2.3,-7,-13,-20,3001,3,8
COc1ccccc1C(=O)Nc1ccc(Cc2ccncc2)cc1,-0.7,3,-12,4,2401,8,0
O=C(NNC1=C(C(=O)C(F)(F)F)CCC1)c1ccc(Br)cc1,101*,-7,-36,100*,8126,7,3
COc1ccc(Cl)cc1NC(=O)COC(=O)Cc1cccs1,2.6,4,-29,5,5451,2,0
O=C(CCc1ccccc1)NNC(=O)Nc1cccc(Cl)c1,0.6,4,-8,-1,6012,-4,2
COc1cccc(CNC(=O)CS(=O)(=O)Cc2nc(-c3ccc(C)cc3)oc2C)c1OC,13,-7,-1,18,4775,0,-2
CSCCC(=O)NC1CC(C)(C)Cc2c1cnn2-c1ccccc1C (stereo not given),-1.2,-8,-25,1,4174,-1,16
Cc1ccccc1C(=O)/C=C1/c2ccccc2CC(C)(C)N1C,9.0,-11,-6,5,10235,9,4
CCC(C)NS(=O)(=O)c1ccc(NS(=O)(=O)c2ccc(F)cc2)cc1 (stereo not given),6.3,-4,-5,7,8059,7,0
CC(C)N(C)C1CCN(C(=O)Nc2ccc(Cl)c(Cl)c2)CC1,0.4,0,-13,0,10961,-4,3

# 2 records drawn at random from the list so far, as already listed:
SMILES,Sa RN4220 lethal,BJeLR viability,PrP UTR inh,ugtP null kill,Autofluor counter,Mtb hypoxia rep,Mtb hypoxia rep growth
CSCCC(=O)NC1CC(C)(C)Cc2c1cnn2-c1ccccc1C (stereo not given),-1.2,-8,-25,1,4174,-1,16
Cc1ccccc1C(=O)/C=C1/c2ccccc2CC(C)(C)N1C,9.0,-11,-6,5,10235,9,4

# Next section
SMILES,Sa RN4220 lethal,BJeLR viability,PrP UTR inh,ugtP null kill,Autofluor counter,Mtb hypoxia rep,Mtb hypoxia rep growth
COc1cccc(-c2nc(CS(=O)(=O)CC(=O)NCCc3ccc(OC)c(OC)c3)c(C)o2)c1,4.1,3,-23,-1,4906,5,8
COCC(C)n1c(C)cc(C(=O)COC(=O)/C=C/c2cccc(F)c2)c1C (stereo not given),3.1,nt,-7,22,4305,11,4
CCn1nccc1C(=O)Nc1cccc(C)c1C,2.6,12,-18,8,4423,0,-4
CCOc1ccc(CN2CCNC(=O)C2CC(=O)N(C)CC2CCOCC2)cc1 (stereo not given),nt,1,-6,nt,5078,nt,nt
CCc1ccc(CCC(=O)Nc2nnc(CC)s2)o1,1.4,-7,-21,6,16177*,4,-4
Cc1ccc(C=NN2CCCCC2)o1,5.4,nt,nt,8,nt,11,6
COc1ccc(-c2c[n+]3c(n2-c2ccccc2)CCCCC3)cc1,2.0,8,-28,5,2522,12,2
Cc1ccccc1C(=O)Nc1ccc2nc3n(c(=O)c2c1)CCCC3,7.6,12,-29,4,3800,1,4
Cc1ccc(C2=NCCNC2=O)c(C)c1,4.8,1,0,12,8484,1,3

# Arranged by molecular weight (highest first): part of the list above.
SMILES,Sa RN4220 lethal,BJeLR viability,PrP UTR inh,ugtP null kill,Autofluor counter,Mtb hypoxia rep,Mtb hypoxia rep growth
COc1cccc(-c2nc(CS(=O)(=O)CC(=O)NCCc3ccc(OC)c(OC)c3)c(C)o2)c1,4.1,3,-23,-1,4906,5,8
Cc1ccccc1C(=O)Nc1ccc2nc3n(c(=O)c2c1)CCCC3,7.6,12,-29,4,3800,1,4
COc1ccc(-c2c[n+]3c(n2-c2ccccc2)CCCCC3)cc1,2.0,8,-28,5,2522,12,2
CCn1nccc1C(=O)Nc1cccc(C)c1C,2.6,12,-18,8,4423,0,-4
